Source: PubChem BioAssay (ICCB-Longwood Screening Facility, Harvard Medical School)
MenB inh – blocks the Mycobacterium tuberculosis MenB enzyme. 0.43% of 100,000 active. P9WNP5. MenB enzyme assay, absorbance read-out; some hits fall short of the stated cut. inhibition, %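 (about 12 µg/mL by stock and volumes)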;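 active means mean of two replicates above 30%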;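 further: 0% = no compound and 100% = wells with inactive enzyme; the first replicate is given; strong numbers were not always called active; inactives centre near -10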
PV pol inh – inhibitors of poliovirus RNA polymerase binding and polymerization. poliovirus polymerase elongation, fluorescence polarization; active compounds read low. AID 588519. 0.66% of 150,000 active. P03300. % elongation, % (compound at 16.7 µg/mL); in the data active means % elongation below about 90%; further: some results filed as inactive read as strong as hits
Target sequence (P03300 1749-2209 limits assumed): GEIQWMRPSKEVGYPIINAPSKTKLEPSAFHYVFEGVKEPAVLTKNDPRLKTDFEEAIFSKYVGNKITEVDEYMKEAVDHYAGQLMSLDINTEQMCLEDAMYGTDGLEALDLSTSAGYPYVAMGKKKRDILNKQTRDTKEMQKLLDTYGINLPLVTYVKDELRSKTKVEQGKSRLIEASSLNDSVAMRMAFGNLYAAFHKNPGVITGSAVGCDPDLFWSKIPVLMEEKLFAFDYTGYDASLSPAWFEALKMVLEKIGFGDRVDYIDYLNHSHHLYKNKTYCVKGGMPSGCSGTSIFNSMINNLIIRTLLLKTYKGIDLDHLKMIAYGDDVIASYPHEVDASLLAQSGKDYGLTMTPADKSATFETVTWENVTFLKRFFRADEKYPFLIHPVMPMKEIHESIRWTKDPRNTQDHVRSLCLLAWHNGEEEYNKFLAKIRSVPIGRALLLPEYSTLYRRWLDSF
Mtb MbtI inh – inhibitors of Mycobacterium tuberculosis siderophore enzyme MbtI; P9WFX0; purified MbtI enzyme, fluorescence intensity read-out; inhibition, %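 (about 17 µg/mL by stock and volumes)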; 0.89% of 100,000 active;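 active means above 50% in both replicates, above 80% if mildly self-fluorescent; inactive means the rest, strongly fluorescent compounds included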;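 further: 0% = mean of negative and 100% = mean of positive controls; one replicate is shown; some compounds called inactive have numbers as strong as hits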
Target sequence (P9WFX0 whole entry, looked up): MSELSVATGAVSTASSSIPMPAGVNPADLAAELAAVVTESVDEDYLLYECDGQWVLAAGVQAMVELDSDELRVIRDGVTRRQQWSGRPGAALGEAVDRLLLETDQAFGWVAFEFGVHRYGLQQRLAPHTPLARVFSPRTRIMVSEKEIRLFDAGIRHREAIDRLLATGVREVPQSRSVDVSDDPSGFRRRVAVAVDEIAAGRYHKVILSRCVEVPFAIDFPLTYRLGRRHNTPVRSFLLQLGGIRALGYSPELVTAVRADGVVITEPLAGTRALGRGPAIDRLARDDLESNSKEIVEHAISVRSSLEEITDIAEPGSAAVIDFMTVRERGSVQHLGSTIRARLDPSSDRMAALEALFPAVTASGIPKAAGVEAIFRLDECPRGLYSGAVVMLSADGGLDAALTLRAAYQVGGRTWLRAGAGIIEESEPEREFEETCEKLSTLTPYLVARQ
PV pol inh intensity – recorded beside PV pol inh, whose call it bears; % elongation; measured here: total intensity read-out; formula for this scale not given here;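 total fluorescence in place of polarization; lower means less elongation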
* = called active by the depositor; / = no result given; & = joins results of further samples.

SMILES	MenB inh	PV pol inh	PV pol inh intensity	Mtb MbtI inh
O=C(CN(C1CCCCC1)S(=O)(=O)c1ccccc1)NCc1ccco1	-41.0	102.0	104.0	5.3
N#CCc1ccsc1	-2.1	100.0	101.0	-11.2
O=C(NC1CCCCC1)c1ccc(COCC(F)(F)F)o1	2.8	99.0	107.0	-1.0
O=C1OC(Oc2cccc3cccnc23)(c2ccccc2)c2ccccc21 (stereo not given)	-54.5	101.0	104.0	9.2
CC1CCCC(C)N1C(=O)COC(=O)c1ccc(C#N)cc1 (stereo not given)	/	104.0	106.0	-12.8
COc1ccc2nc(C)cc(NCC3CCCO3)c2c1 (stereo not given)	-7.6	94.0	106.0	101.3
CCc1ccc(OCC(=O)OCCN2CCCC2=O)cc1	/	102.0	107.0	-5.2
COC(=O)C(NC(=O)c1ccc(S(=O)(=O)N2CCOCC2)cc1)C(C)C (stereo not given)	-12.2	101.0	97.0	-5.1
Cc1ccc(C)c(N2CCN(S(=O)(=O)c3ccc4nc(-c5ccccc5)[nH]c4c3)CC2)c1	-14.8	101.0	104.0	-7.9
CN(Cc1ccccc1)C(=O)CN(c1cccc(F)c1)S(C)(=O)=O	-7.8	101.0	101.0	-22.0
Cc1cc2c(c(=O)[nH]1)C(c1ccc(C(C)C)cc1)C(C#N)=C(N)O2 (stereo not given)	1.0	102.0	107.0	-4.8
CCN(Cc1ccc(/C=C2\C(=O)Nc3ccccc32)o1)S(C)(=O)=O	-179.8	107.0	101.0	5.3
CC1Cc2ccccc2N1C(=O)c1cc2ccccc2oc1=O (stereo not given)	/	102.0	97.0	-0.1
Cn1ncc(C(=O)O)c1C(F)(F)F	3.1	97.0	102.0	-4.5
C/C(=N\NC(=O)CSc1nnc(SCc2ccccc2)s1)c1ccco1	-24.5	104.0	103.0	-4.7
CC(C)(CNC(=O)/C=C/c1ccc(Br)cc1)N1CCOCC1	-17.3	106.0	108.0	12.5
Cc1cccc(C(=O)Nc2cc(-c3ccccc3)no2)c1	-24.1	100.0	100.0	-73.9
COc1ccc2c(c1)CCCN2C(N)=O	3.5	102.0	102.0	-8.2
CN(C)C(=O)c1ccc(N)cc1	-86.4	94.0	101.0	8.8
CN(C)Cc1c(C#N)c2ccccc2n1C	-16.9	102.0	108.0	/
O=c1[nH]cnc2c1cnn2-c1ccc(C(F)(F)F)cn1	/	99.0	99.0	40.6
Cc1cc(C)nc(Nc2ccc(C(=O)OCC(C)C)cc2)n1	-2.4	98.0	95.0	-14.4
Cc1cc(C(=O)CN2c3cccc4cccc(c34)S2(=O)=O)c(C)n1C	-14.2	105.0	111.0	1.4
CCS(=O)(=O)Nc1cc2c3c(n(S(=O)(=O)CC)c2cc1C)CCC3	-0.5	101.0	107.0	-8.2
CCOC(=O)CN1C(=O)S/C(=C/c2cn(CC(N)=O)c3ccccc23)C1=O	-70.8	102.0	104.0	-3.2
COCCNC(=O)Nc1ccc(F)cc1	-12.7	102.0	103.0	0.9
FC1(F)C2C3C=CC(O3)C2C1(F)F (stereo not given)	-17.3	100.0	103.0	-8.1
Cc1nn(C)c(C)c1/C=N/NS(=O)(=O)c1ccccc1	-26.2	106.0	104.0	10.6
Cc1cc(C)cc(NC(=O)c2oc3c(c2C)-c2[nH]ncc2CC3)c1	3.0	101.0	103.0	34.2
CC(C)c1nc2ccc(N)cc2s1	26.0	101.0	102.0	31.9
O=C(Cn1c(-c2cccs2)cc2ccccc21)NC1CCCCC1	2.4	100.0	98.0	-20.8
CC(=O)Nc1c(OC(C)=O)ccc2c(C)cc(=O)oc12	-19.6	102.0	97.0	3.1
CN(C)c1nc(-c2ccccc2O)nc2ccccc12	8.1	102.0	100.0	5.7
Cc1cccc(OCC(=O)Nc2ccc(S(N)(=O)=O)cc2)c1C	-13.3	99.0	102.0	2.2
COc1ccc(OCC(O)CNS(=O)(=O)c2ccc(-c3ccccn3)s2)cc1 (stereo not given)	13.6	99.0	99.0	4.7
CCN(C(=O)Cn1cnc2sccc2c1=O)C1CCS(=O)(=O)C1 (stereo not given)	17.9	103.0	99.0	9.9
O=C(Oc1ccc(-c2nnco2)cc1)C1c2ccccc2Oc2ccccc21	-37.8	106.0	108.0	-7.2
CC(=O)N1CCC(N(C(=O)Nc2ccccc2)C2CCCC2)CC1	7.9	102.0	103.0	4.5
O=C(Cn1cc(S(=O)(=O)N2CCCC2)c(S(=O)(=O)N2CCCC2)c1)N1CCCCCC1	0.4	102.0	101.0	-4.8
Cc1nc2ccccc2c(=O)n1-c1cccc(NC(=O)c2ccc(Br)o2)c1	-3.8	101.0	108.0	19.0

12 entries from above, set out differently.
Every second line gives: MenB inh	PV pol inh	PV pol inh intensity	Mtb MbtI inh
Cc1cc(C)nc(Nc2ccc(C(=O)OCC(C)C)cc2)n1
  -2.4	98.0	95.0	-14.4
Cc1cc(C(=O)CN2c3cccc4cccc(c34)S2(=O)=O)c(C)n1C
  -14.2	105.0	111.0	1.4
CCS(=O)(=O)Nc1cc2c3c(n(S(=O)(=O)CC)c2cc1C)CCC3
  -0.5	101.0	107.0	-8.2
CCOC(=O)CN1C(=O)S/C(=C/c2cn(CC(N)=O)c3ccccc23)C1=O
  -70.8	102.0	104.0	-3.2
COCCNC(=O)Nc1ccc(F)cc1
  -12.7	102.0	103.0	0.9
FC1(F)C2C3C=CC(O3)C2C1(F)F (stereo not given)
  -17.3	100.0	103.0	-8.1
Cc1nn(C)c(C)c1/C=N/NS(=O)(=O)c1ccccc1
  -26.2	106.0	104.0	10.6
Cc1cc(C)cc(NC(=O)c2oc3c(c2C)-c2[nH]ncc2CC3)c1
  3.0	101.0	103.0	34.2
CC(C)c1nc2ccc(N)cc2s1
  26.0	101.0	102.0	31.9
O=C(Cn1c(-c2cccs2)cc2ccccc21)NC1CCCCC1
  2.4	100.0	98.0	-20.8
CC(=O)Nc1c(OC(C)=O)ccc2c(C)cc(=O)oc12
  -19.6	102.0	97.0	3.1
CN(C)c1nc(-c2ccccc2O)nc2ccccc12
  8.1	102.0	100.0	5.7

Additional results.
SMILES	MenB inh	PV pol inh	PV pol inh intensity	Mtb MbtI inh
COC(=O)C(C)N(C#N)c1nc(C)nc(C)n1 (stereo not given)	-3.7	100.0	98.0	-8.7
O=c1[nH]nc2n1CCCCC2	6.9	100.0	104.0	-5.0
OC(c1ccccc1)c1nnc(-c2ccccc2)o1 (stereo not given)	/	103.0	96.0	-4.8
CC(C)(Oc1ccc(CCNC(=O)c2ccc(Cl)cc2)cc1)C(=O)O	3.2&4.5&2.3	98.0&98.0&99.0&100.0	104.0&102.0&102.0&100.0	-11.8&-14.6&-27.4
CC/C(=N/NC(=O)c1ccccc1C)c1ccc(O)cc1	-26.7	101.0	102.0	22.4
CCOC(=O)C(Sc1nc(C)cc(=O)[nH]1)c1ccccc1 (stereo not given)	-4.8	/	/	-1.0
O=C(CSc1nc2ccccc2c(=O)n1C1CC1)c1ccc(Cl)cc1	3.9	103.0	101.0	-4.1
O=C(NNC1=NCCCCC1)c1ccc(Br)cc1	10.6	98.0	105.0	-4.3
CCCC(=O)Nc1cc(-c2nnc(OC)c3ccccc23)ccc1N1CCOCC1	5.6	101.0	103.0	-7.2
CCN(CC)S(=O)(=O)c1ccc(NC(=O)/C=C/c2ccc(F)cc2)cc1	/	104.0	108.0	30.1
COC(=O)c1cccc(S(=O)(=O)N2CCC(NC(=O)Nc3cccc(F)c3)CC2)c1	-28.1	101.0	99.0	-1.8
O=C(COC(=O)c1ccccc1)Nc1cccc2nsnc12	-34.1	/	/	-6.7
CCOC(=O)N1CCN(C(=O)c2ccc(N3CCCCC3)c(NC(=O)Nc3ccc(Cl)c(Cl)c3)c2)CC1	-42.3	101.0	97.0	22.1
C=CCNC(=O)c1c(C)cc(C)cc1C	-9.9	99.0	102.0	-5.0
O=C1CN(C(=O)c2ccc(Cl)c(S(=O)(=O)N3CCCCCC3)c2)c2ccccc2N1	-9.3	104.0	100.0	13.8
CCn1cc(C(=O)OCC(=O)N2CCCC(C)C2)c(=O)c2ccc(C)nc21 (stereo not given)	-7.4	101.0	100.0	-0.4
CCC1=C(c2ccc(C)cc2)S(=O)(=O)N=C1N1CCC(C(=O)N(C)Cc2ccco2)CC1	3.5	100.0	100.0	2.4
Cc1ccc(C)n1-c1sccc1C(=O)N1CCN(S(=O)(=O)c2cccc(F)c2)CC1	10.5	102.0	105.0	3.2
O=C(NCCNC1CCCC1)c1ccco1	17.2	101.0	102.0	-4.7
O=C(N/N=C1\CCc2ccccc21)c1ccccn1	-42.5	104.0	102.0	2.8

Brought forward from above: 2 compounds, followed by the next part.
SMILES	MenB inh	PV pol inh	PV pol inh intensity	Mtb MbtI inh
O=C(NCCNC1CCCC1)c1ccco1	17.2	101.0	102.0	-4.7
O=C(N/N=C1\CCc2ccccc21)c1ccccn1	-42.5	104.0	102.0	2.8
CC1=C(C(=O)Nc2ccccc2)C(c2ccccc2)n2c(s/c(=C\c3cccs3)c2=O)=N1 (stereo not given)	-22.9	100.0	102.0	12.2
N#C/C(=C\c1ccc(OCC(N)=O)cc1)c1ccccc1	-5.5	101.0	104.0	/
COC(=O)C1=C(N)Oc2cc(C)oc(=O)c2C12C(=O)Nc1ccccc12 (stereo not given)	5.4	102.0	104.0	7.2
COc1cc(C(=O)N(Cc2ccco2)Cc2ccccc2F)cc(OC)c1OC	6.4	101.0	103.0	0.1
O=C1/C(=C/c2cccs2)CCCc2ccccc21	-2.1	104.0	98.0	5.2
C=CCN(CC=C)C(=O)CSc1nc(N)cc(N)n1	-16.6	106.0	111.0	-3.4
COc1ccc(CCC(=O)CCc2ccc(OC)cc2)cc1	0.4	102.0	96.0	-2.2
CCc1ccc(S(=O)(=O)NC2CCCCNC2=O)cc1 (stereo not given)	-1.1	102.0	103.0	-0.2
Cc1noc(C)c1C(=O)OCC(=O)NCC12CC3CC(CC(C3)C1)C2	-17.3	103.0	111.0	-11.3
NC(=O)c1ccccc1NC(=O)C1SC(=Nc2cccc(Cl)c2)C(C(=O)NCc2ccco2)=C1N (stereo not given)	-27.0	107.0	115.0	-9.2
CCc1cccc(CC)c1NC(=O)c1c(Cl)nc2sccn12	17.0	108.0	101.0	4.7
COc1cc(CNc2nn[nH]n2)cc(Br)c1OCc1ccc(Cl)cc1	-91.1	109.0	99.0	-6.3
COc1cc(/C=C/C(=O)N2CCC=CC2=O)cc(OC)c1OC	-2.6	100.0	100.0	-17.6
C(=C\c1ccccc1)/CN1CCN(c2ccccc2)CC1	-12.8	99.0	102.0	-10.9
COc1cccc(N2C(=O)CC(c3c[nH]c4ccccc34)C2=O)c1 (stereo not given)	-12.3	100.0	106.0	-31.6
COc1cccc(NC(=O)NCCN2CCN=C2C)c1	-1.2	108.0	111.0	-7.3
Cn1nc(C2CC2)cc1NC(=O)Nc1csc2ccccc12	-7.6	102.0	100.0	-6.9
Cc1nn(CC(=O)O)c(=O)c2cccn12	-12.5	102.0	102.0	-6.0
O=C(N/N=C1\CCS(=O)(=O)c2ccc(F)cc21)c1ccc2c(c1)OCO2	8.7	102.0	126.0	2.3
CCOC(=O)c1oc2ccc(S(=O)(=O)Nc3noc4ccccc34)cc2c1C	0.1	103.0	103.0	30.0
O=C(/C=C/c1cn(-c2ccccc2)nc1-c1ccc(F)cc1)N1CCN(C2CCS(=O)(=O)C2)CC1 (stereo not given)	-16.8	102.0	107.0	-5.2
Cc1cc2ncn(S(=O)(=O)c3ccc(S(=O)(=O)NC4CCCCC4)cc3)c2cc1C	-40.7	104.0	103.0	-3.5
O=C(CCCC(=O)Nc1nccs1)Nc1nccs1	0.0	103.0	102.0	-7.2
CC1=C(C#N)C(c2cccnc2)C(C#N)=C(C)N1	10.3	98.0	104.0	48.6
COc1ccc(-c2[nH]ncc2C(=O)NCCc2ccccc2)cc1	-6.3	101.0	102.0	-2.2
Cc1ccc(O)c(C2=NNC(O)(C(F)(F)F)C2)c1 (stereo not given)	-3.4	103.0	103.0	57.0
C=CCN1CN=C(NS(=O)(=O)c2ccc(NC(C)=O)cc2)NC1	-29.9	102.0	99.0	-6.4
Cc1nn(Cc2nnc(SCc3c(Cl)cccc3Cl)o2)c(C)c1Br	-26.3	103.0	102.0	-6.8
c1ccc(-c2csc3ncnc(NCCCn4ccnc4)c23)cc1	-4.7	101.0	103.0	-9.1
COc1ccc(O)c(CN(C)CCN(C)C)c1	17.6	101.0	105.0	9.1
Cc1ccc(C2C(NC(=O)c3ccccc3)C(=O)N2c2ccc(C)cc2)cc1 (stereo not given)	-5.6	102.0	107.0	-9.9
O=C(Oc1ccc2c(c1)OCO2)C1CCCCN1S(=O)(=O)c1ccccc1 (stereo not given)	5.2	102.0	107.0	-7.3
COc1ccc(C2SCCN2C(=S)Nc2cccc(C(F)(F)F)c2)cc1 (stereo not given)	-12.5	103.0	108.0	-12.6
C/C(=N\NC(=O)NC1CCCCC1)c1ccc2c(c1)OCO2	-21.8	103.0	94.0	1.0
COc1ccc(CN(C)C(=O)C2CC(=O)N(c3ccc4c(c3)OCCO4)C2)c(OC)c1 (stereo not given)	-19.9	100.0	109.0	-1.2
COc1ccc(S(=O)(=O)N2CCC(C(=O)N3CCCCCC3)CC2)cc1C	5.3	100.0	103.0	-16.5
CC(C)C(NC(=O)C12CC3CC(CC(C3)C1)C2)C(=O)Nc1nc2ccccc2s1 (stereo not given)	-4.6	100.0	106.0	-6.3
COc1ccc(/C=C2/SC(=S)NC2=O)cc1COc1ccc(F)cc1F	-22.6	104.0	105.0	/
CC(C)(C)c1nnc(Nc2ccc(Nc3ccccc3)cc2)[nH]c1=O	0.0	100.0	101.0	-2.5
O=C(Nc1ccnn1Cc1ccccn1)c1cccnc1Oc1ccccc1	-22.4	100.0	100.0	-2.8
